Screening data as filed in PubChem BioAssay.
CapD inh = inhibitors of Bacillus anthracis CapD enzyme. purified CapD enzyme, fluorescence intensity read-out; active compounds read low; some hits fall short of the stated cut. z-score (concentration not given with the values). hit rate 0.23% among 140,000;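 active means z-score under -4 in either of two replicates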;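 further: stock transfer was 100 nL into about 40 µL; score is relative to mean and spread of the plate; one replicate is shown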
AID504770 = growth inhibitors of E. coli YBA685 in a screen for V. cholerae RctB (chromosome II replication) inhibitors; hit rate 0.27% among 130,000; z-score (test concentration not listed); E. coli YBA685 rctB-dependent plasmid, OD600 growth, 3 h; active compounds read low;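 active means z-score under -2 on both plates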;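 further: wells of about 30 µL received 100 nL stock; score is relative to mean and SD of the test wells; the first replicate is given; strong numbers were not always called active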
* = called active by the depositor; / = not tested or not shown.

SMILES	CapD inh	AID504770
CC(=O)Nc1cc(C(=O)NC2CCCCC2C)ccc1S(=O)(=O)c1ccc(Cl)cc1 (centres undefined)	0.94	-0.7
Cc1cc(CN2C(=O)c3ccccc3S2(=O)=O)no1	-0.17	-0.4
CCOC(=O)C1CCCN(c2cc(C)nc3cc(-c4ccc(Cl)cc4)nn23)C1 (centres undefined)	/	0
Cc1ccc(C)c(SCC(=O)NC(C)C(c2cccs2)N2CCCC2)c1 (centres undefined)	-0.25	0.25
COc1cc(CN2c3ccccc3N3CCCCCC32)cc(OC)c1OC (centres undefined)	-1.3	-0.35
Cc1cc(NC(=O)CSc2nccn2-c2ccccc2)no1	-0.57	-0.95
CN(C)c1ccc(C2NC(C(=O)O)Cc3c2[nH]c2ccccc32)cc1 (centres undefined)	6.3	/
COCCN(Cc1nc2ccccc2c(=O)[nH]1)C(=O)c1ccc(S(C)(=O)=O)cc1	/	-0.1
Nc1ccc(S(=O)(=O)N2CCSC2C(=O)O)cc1 (centres undefined)	/	-0.35
COc1ccccc1-c1nnc(CC(=O)O)o1	/	-1.1
CCOC(=O)Cc1csc(NC(=O)c2c(O)c3c(n(CC(C)C)c2=O)CCCC3)n1	-0.66	/
Cc1cc(C)n(-c2ccc(CSc3nnc(-c4ccc(OC(F)F)cc4)o3)cc2)n1	/	-0.2
Cc1c(C(=O)O)cc(-c2ccccc2)n1CCNC(=O)OC(C)(C)C	0.64	-0.8
CCOC(=O)C1=C(C)OC(N)=C(C#N)C1c1cccs1 (centres undefined)	0.86	/
COc1ccc(S(=O)(=O)NC2C3CC4CC(C3)CC2C4)cc1 (centres undefined)	-0.075	/
COc1ccc2oc(=O)c(-c3nc(-c4ccc(Br)cc4)cs3)cc2c1	0.3	/
Cc1ccccc1Nc1nc(N)nc(CNc2cccc(F)c2)n1	/	0.05
O=C(c1ccccc1Oc1ccccc1)N1CCn2c1nc1ccccc12	/	-0.35
CC(CCc1ccccc1)NC(=O)COc1ccc(-n2cnnn2)cc1 (centres undefined)	/	-0.25
CC(=O)N1CCC(N(C(=O)NS(=O)(=O)c2ccc(C)cc2)C2CC2)CC1	-1.1	/
c1coc(-c2nc3nc4ccccc4nc3n2-c2ccc3c(c2)OCCO3)c1	/	-0.4
Cc1cnn(C(=S)NCc2ccco2)c1	0.015	-0.45
CCc1ccc(C(=O)Nc2ccc(S(N)(=O)=O)cc2)cc1	0.99	1.2
COc1ccc(S(=O)(=O)NCc2csc(-c3ccccc3)n2)cc1	/	-0.2
O=C(O)CCc1cccnc1	-0.44	-0.8

Grouped by structure, the compounds so far with a furan ring, fused or not.
SMILES	CapD inh	AID504770
c1coc(-c2nc3nc4ccccc4nc3n2-c2ccc3c(c2)OCCO3)c1	/	-0.4
Cc1cnn(C(=S)NCc2ccco2)c1	0.015	-0.45

Continued:
SMILES	CapD inh	AID504770
O=C1C2=C(C(=O)N1c1ccc(Br)cc1)C(c1ccccc1)=NCCN2	-0.62	-0.7
O=[N+]([O-])c1cc(CO)ccc1N1CCOCC1	0.21	/
CC(C)c1nc2ccc(Cl)cc2c2c1C(=O)N(NC(=O)c1ccc(C(C)(C)C)cc1)C2=O	-0.53	/
CC1C(c2ccc(F)cc2)=NOC1C(=O)O (centres undefined)	/	-0.4
Cc1ccc(C(=O)/C=C/N(C)C)cn1	-2.8	-0.35
CCOC(=O)c1c(NC(=O)c2ccc(OC)cc2)sc(C(=O)Nc2ccc(C)c(Cl)c2)c1C	-0.02	/
O=S(=O)(NC1CCCC1)c1ccc(-n2cccn2)cc1	-0.085	0.75
CN1C2CCCC1CC(=O)C2	-0.39	/
COc1ccc(-c2ocnc2C(=O)NCCc2ccccc2)cc1	14	1.4
CCSc1ccc(C(=O)Nc2ccc(SCc3nc(OC)cc(OC)n3)cc2)cc1	-0.23	/
O=C(NCC1CCN(C2CCCC2)C1)c1ccc(N2CCCS2(=O)=O)cc1 (centres undefined)	0.33	-1.9
CN1C(=O)/C(=C\C=C\c2ccccc2Cl)SC1=S	0.085	-0.6
N#Cc1ccc(N2C(=O)C3=C(SCCS3)C2=O)cc1	0.82	1.8
COc1ccc(C2C(C(=O)NCCCN3CCC(C)CC3)c3ccccc3C(=O)N2C)cc1 (centres undefined)	0.75	/
COc1ccc(C2=NC(C(F)(F)F)(C(F)(F)F)N=C(c3ccccc3C)O2)cc1	0.12	0.3
Cc1cc2oc(=O)cc(CCl)c2cc1C	-0.48	-0.6
Nc1c(C(=O)c2ccc(Br)cc2)sc2nc(-c3cccnc3)ccc12	-0.67	/
CCCCNS(=O)(=O)c1cccc2nonc12	-0.76	/
O=C(NC(CO)Cc1ccccc1)c1ccc(I)cc1 (centres undefined)	0.22	/
CCCN1CCC(N(C(=O)Nc2ccccc2C(=O)NCc2cccc(C(F)(F)F)c2)C2CC2)CC1	-0.18	/
O=C1c2cccc3cccc(c23)C(=O)N1CC1CCN(S(=O)(=O)c2ccc(F)cc2)CC1	1.9	/
NS(=O)(=O)c1ccc(NC(=O)c2ccc3ncsc3c2)cc1	1.8	-0.4
O=C1NC(=O)N(CCc2ccc(F)cc2)C(=O)/C1=C\c1ccc(O)c(O)c1	-0.66	-0.45
CC(=O)Nc1ccc(S(=O)(=O)N2CCC(C)CC2)cc1	/	-1.1
CCOc1ccc(N=Cc2cccs2)cc1	-0.68	/

Compound profiles (already shown). Order of values: CapD inh, AID504770
Cc1cc2oc(=O)cc(CCl)c2cc1C across the screens: -0.48, -0.6
CC(C)c1nc2ccc(Cl)cc2c2c1C(=O)N(NC(=O)c1ccc(C(C)(C)C)cc1)C2=O across the screens: -0.53, /
O=C1NC(=O)N(CCc2ccc(F)cc2)C(=O)/C1=C\c1ccc(O)c(O)c1 across the screens: -0.66, -0.45
O=C1C2=C(C(=O)N1c1ccc(Br)cc1)C(c1ccccc1)=NCCN2 across the screens: -0.62, -0.7
COc1ccc(C2=NC(C(F)(F)F)(C(F)(F)F)N=C(c3ccccc3C)O2)cc1 across the screens: 0.12, 0.3

Other compounds.
SMILES	CapD inh	AID504770
CC(=O)OC1CCC2C3CCC4CCCC(=O)C4(C)C3CCC12C (centres undefined)	-0.01	-0.35
Nc1c(C(=O)NC2CCCCC2)sc(=S)n1-c1ccccc1	0.005	0.35
O=C(CSC1=NC(=O)C(c2ccccc2)C(=O)N1)c1ccccc1 (centres undefined)	-0.19	0.1
CCOC(=O)c1c[nH]c2c(C)cccc2c1=O	-0.16	-0.95
NC(=S)Cc1nc(-c2ccccc2)cs1	0.21	-0.55
Cc1cc(/C=C/C(=O)N(C)CC2COc3ccccc3O2)c(C)n1Cc1ccco1 (centres undefined)	/	2
Cc1cc2nc(NCC3COc4ccccc4O3)c3ccccc3n2n1 (centres undefined)	/	-0.9
Cc1ccc(/C=C2\SC(=S)N(C(C(=O)O)C(C)C)C2=O)cc1 (centres undefined)	-0.5	0.1
CC(C)C12CCCC(C(=O)O)(CCC1)C2	-0.97	1.8
C=CCN1C(=O)/C(=c2\sc3n(c2=O)C(c2ccc(F)cc2)C(C(=O)OCC)=C(C)N=3)c2ccccc21 (centres undefined)	-0.025	/
Cc1cc(C)c2c(N)c(C(=O)c3ccccc3O)sc2n1	/	-0.3
CCc1nnc(NC(=O)Cn2ncc3c2-c2cc(C)ccc2OC3)s1	-0.19	-0.7
Cc1sc2nc3scc(CC(=O)NCCO)n3c(=O)c2c1C	1.7	-0.3
COc1ccc(-c2noc(CC(=O)Nc3cccc(OC)c3)n2)cc1	-0.21	-0.85
COc1ccc(OC(=O)C/C=N\OCc2c(Cl)cccc2Cl)cc1	-0.62	/
CC1(C)Cc2cccc(OCC(O)CNCc3ccccc3)c2O1 (centres undefined)	-1.2	1.4
Cc1cccc(S(=O)(=O)NCCN2CCCCC2)c1	-0.69	/
CC(=O)N/C(=C\c1ccc(C#N)cc1)C(=O)O	0.065	-0.35
COc1ccc(OC)c2c1CC(C)(C)N=C2SC	-0.3	-0.45
COC(=O)c1c(N)sc2c1CCc1ccccc1-2	-0.54	-0.05
O=C1c2ccccc2C(=O)N1Cc1csc(-c2cccs2)n1	1.4	-0.3
O=C(CSCc1ccc(Cl)c(Cl)c1)Nc1ccc(F)c(Cl)c1	-0.29	/
CCOC(=O)c1c(/N=c2\oc3c(OC)cccc3cc2C(N)=O)sc2c1CCCC2	-0.18	/
CCN1C(=O)N(CC)C2C1N(C)C(=O)N2C(C)(C)C (centres undefined)	/	0
CCC(Sc1nc2cc3c(cc2c(=O)n1Cc1ccc(OC)cc1)OCO3)C(=O)N1CCCC1 (centres undefined)	0.21	0.05

Later entries
SMILES	CapD inh	AID504770
Nc1nccc(-c2ccc3c(c2)OCCO3)n1	101	0.75
N#CC1=C([S-])N[C@@](O)(c2ccccc2)[C@H]([n+]2cccc3cc(Cl)ccc32)[C@H]1c1ccsc1	5.9	/
NC(=O)c1ccccc1NC(=O)c1cc(-c2ccccc2)nc2ccccc12	-0.25	/
N#CCCN1CCC(C(N)=O)CC1	0.49	/
Cc1nn(-c2ccccc2)c(C)c1/C=N/NC(=O)Nc1ccccc1	0.4	/
CCOP(C)(=O)C1(C(=O)OCc2ccccc2)CC1 (centres undefined)	0.27	0.65
CC(NS(=O)(=O)c1ccccc1)C(=O)Nc1ccccc1F (centres undefined)	-0.15	-0.65
O=C(NCC1CC1)c1ccccc1NC(=O)c1cc2ccccc2oc1=O	-0.29	0.5
CCn1cc(CCCC(=O)N2CCCC2)c2ccccc21	1.9	0.15
CC12COC3(C(=O)O)CC1CCC32C (centres undefined)	0.55	-0.15
Cc1cccc(NC(=O)C2(N3CCC3=O)CCCCC2)c1	0.09	0.85
COc1ccc(S(=O)(=O)N(CC(=O)NCC2CCCO2)c2ccc(C)cc2)cc1OC (centres undefined)	0.075	1.1
CCOC(=O)CSc1nc2ccccc2n1C(=O)OC	0.06	/
Cc1ccc(N2C(=O)CC(c3ccccc3)C3=C2CC(C)(C)CC3=O)cc1 (centres undefined)	0.08	/
NCCCCOc1ccc(F)cc1	/	-0.4
CC(=O)OCC(=O)NCc1ccccc1Cl	/	-0.25
Cc1c(C#N)c(N)n(CCN2CCOCC2)c1C	/	-0.7
CCN(CC)S(=O)(=O)c1ccc(Cl)c(C(=O)Oc2cccc3cccnc23)c1	-0.21	/
COc1ccc(C(O)C23CC4CC(CC(C4)C2)C3)cc1 (centres undefined)	1.2	0.75
CCCCC1=NN(C(=O)c2ccccc2)C(O)(C(F)(F)F)C1 (centres undefined)	-0.23	-1
CCN(CC)C(=O)c1sc(NC(=O)c2cc(-c3ccc(Cl)c(Cl)c3)nc3ccccc23)c(C(=O)OC)c1C	-0.04	/
CC(C)(C)C1=NOC(O)(C(F)(F)F)C1 (centres undefined)	0.27	-0.75
O=C(CC(c1ccccc1)c1ccccc1)N1CCc2ccccc2C1	-0.06	-0.25
Cc1ccc2c3c(ccc2n1)NC1=C(C(=O)CCC1)C3c1ccc(O)cc1 (centres undefined)	3.2	-0.8
O=c1sc2ccccc2n1CCCOc1ccccc1	/	-0.3

Looked up by compound from above (three):
SMILES	CapD inh	AID504770
COc1ccc(S(=O)(=O)N(CC(=O)NCC2CCCO2)c2ccc(C)cc2)cc1OC (centres undefined)	0.075	1.1
NCCCCOc1ccc(F)cc1	/	-0.4
Nc1nccc(-c2ccc3c(c2)OCCO3)n1	101	0.75

Among those listed so far, these have a tert-butyl group.
SMILES	CapD inh	AID504770
Cc1c(C(=O)O)cc(-c2ccccc2)n1CCNC(=O)OC(C)(C)C	0.64	-0.8
CC(C)c1nc2ccc(Cl)cc2c2c1C(=O)N(NC(=O)c1ccc(C(C)(C)C)cc1)C2=O	-0.53	/
CCN1C(=O)N(CC)C2C1N(C)C(=O)N2C(C)(C)C (centres undefined)	/	0
CC(C)(C)C1=NOC(O)(C(F)(F)F)C1 (centres undefined)	0.27	-0.75

(cont.)
SMILES	CapD inh	AID504770
CC12CCC(C/C1=N/OC(=O)c1cc3ccccc3o1)C2(C)C (centres undefined)	0.37	0.95
CSCc1nnc(NC(=O)c2ccc(S(=O)(=O)N3CCCCC3C)cc2)o1 (centres undefined)	-0.94	-0.55
Cn1c2c(c3ccccc31)CC/C2=N\O	0.55	-0.05
Cc1cc(=O)n2[nH]c(-c3ccccc3)cc2n1	4.5	0.9
CN(C)S(=O)(=O)N1CCC(c2nn(-c3ccccc3)c(=O)o2)CC1	0.085	0.75
O=C1CN(CC(=O)Nc2ccc(C(F)(F)F)cc2)CCN1	/	-0.25
CC(=O)N1CCN(C(=O)c2ccccc2CSc2nc(C)cs2)CC1	/	0.65
CSc1cc(-c2cccs2)nc(-c2ccc(Cl)cc2)n1	2.8	1.1
c1csc(-c2nnc(CSc3nnc(-c4ccc5c(c4)OCO5)o3)o2)c1	/	-0.2
NCCCS(=O)(=O)O	1.2	0.2
O=C(CCl)O/N=C1\C(=O)N(Cc2ccc(Cl)cc2)c2ccccc21	-0.27	/
C/C(Nc1ccc(OC(F)(F)F)cc1)=C1/CCOC1=O	-0.76	-1.1
O=S(=O)(NC1c2cccc3cccc(c23)C1N1CCN(CCO)CC1)c1ccc(Cl)cc1 (centres undefined)	-0.66	/
CCSC1(SCC)N=C(N)C2(C#N)C(c3ccccc3)NC(C)=CC12C#N (centres undefined)	1.7	-0.15
O=C(CCC1=NS(=O)(=O)c2ccccc2N1)NC1CCCCCCC1	21	-0.7
N#CC1=C(SCC(=O)Nc2ccc(Cl)cc2)NC(=O)C(C#N)C12CCCCC2 (centres undefined)	-0.57	-0.5
CCOc1ccc(CCNS(=O)(=O)c2cccc3nsnc23)cc1OCC	-0.95	/
CC(/C=N/N1CCOCC1)=C\c1ccccc1	/	0.3
COc1ccc(/C(N)=N/OC(=O)c2c(-c3ccccc3Cl)noc2C)cc1	0.49	-0.25
Cc1cccc(N2C(=O)C3C(c4ccccc4)CCC(c4ccccc4)C3C2=O)c1C (centres undefined)	-0.33	/

An excerpt, so the mix of outcomes need not match the whole.
